Cruzain noTriton: inhibitors of Trypanosoma cruzi cruzain without detergent; P25779; purified cruzain, Z-FR-AMC fluorescence, no detergent; Potency, µM, inactives show max response, negative = inhibition, most hits filed as inhibitors; 200,000 tested, 2.3% active;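 also: plate controls were enzyme without inhibitor for no effect and buffer without enzyme for full effect; nearly all actives have a fitted effect of over 40% in size; top concentration of the series not given in the record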
Target sequence (P25779 123-467 limits assumed): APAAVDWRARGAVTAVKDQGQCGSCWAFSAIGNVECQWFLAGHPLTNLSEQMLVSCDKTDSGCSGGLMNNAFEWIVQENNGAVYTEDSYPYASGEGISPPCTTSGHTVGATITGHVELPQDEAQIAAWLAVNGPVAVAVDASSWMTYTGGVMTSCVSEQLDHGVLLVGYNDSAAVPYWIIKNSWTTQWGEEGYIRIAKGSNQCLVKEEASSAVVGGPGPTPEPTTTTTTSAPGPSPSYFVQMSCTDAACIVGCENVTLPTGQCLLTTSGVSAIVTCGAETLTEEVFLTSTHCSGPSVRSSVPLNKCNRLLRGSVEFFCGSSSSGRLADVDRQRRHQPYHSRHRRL
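Detergent-free condition (0.00005% Triton X-100) in acetate buffer pH 5.5 with DTT. 1.5 nM enzyme and compound were pre-mixed 15 min, then 2 uM Z-FR-AMC substrate added; reaction progress from fluorescence change between first and third reads (60 s).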
MARV entry inh: Marburg virus entry inhibition; Marburg virus pseudotyped entry inhibition, cell reporter; control for the full effect not named in the record; about a third of the inactives were read at about 46 µM; Potency, µM (top dose mostly 37.8 µM), for inactives: at the top dose activity change, negative = inhibition, hits mostly inhibitors; AID 540276; 300,000 tested, 1.8% active; active = well fitted inhibition curve with a large enough effect; inconclusive = small, poorly fitted or top-dose-only effect, or effect the other way; inactive = flat fitted curve, though single readings scatter; tested in HEK293 cells; about a fifth of its hits are not listed in these tables; also: % is scaled to controls: 0 for no effect and ±100 for the full control effect; luciferase read-out
RE007 growth inh: less growth of the S. pombe RE007 Vpr strain | AID 651644 | 360,000 tested, 0.21% active | S. pombe RE007 Vpr strain, BacTiter-Glo ATP luminescence, 24 h; control for the full effect not named in the record | Potency, µM (titrated, usually from 92.2 µM), without a hit: at the top dose activity change, negative = less growth; active = well fitted falling curve with a large enough effect; inconclusive = small, poorly fitted or top-dose-only effect; inactive = no such curve, though single readings can be large or run the other way;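 also: % is scaled to controls: 0 for no effect and ±100 for the full control effect; nearly all actives have a fitted effect of over 50% in size; the assay follows cell death caused by Vpr and the record does not say whether a fall means rescue or toxicity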
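Fission yeast RE007 carrying one integrated HIV-1 vpr copy, seeded at OD 0.01 in PMG+AL medium with 23 nL pinned compound. Grown 24 h at 30 degrees; viability read by BacTiter-Glo luminescence after 5 min.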
NS1 inh: blocks influenza NS1 protein function. S. cerevisiae slowed by influenza A NS1, growth recovery by OD600. Potency, µM (series often up to 46.1 µM), for the others: at the highest dose activity, positive = more growth. 270,000 tested, 0.4% active; active means well fitted rising curve with a large enough effect; inconclusive means small, poorly fitted or top-dose-only effect; inactive means no such curve, though single readings can be large or run the other way; also: nearly all actives have a fitted effect of over 50% in size
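S. cerevisiae expressing influenza A NS1, grown in glucose, washed, then diluted 1:100 into pH 6.0 -URA galactose medium with 23 nl compound. Growth recovery read as OD600; NS1-free strain serves as control.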
SARS PLP yeast: SARS-CoV PLP inhibition in yeast; 330,000 tested, 0.19% active; S. cerevisiae expressing SARS-CoV PLpro, growth rescue; control for the full effect not named in the record; Potency, µM (highest dose often 32.9 µM), for the others: at the highest dose activity, positive = growth rescue; active means well fitted rising curve with a large enough effect; inconclusive means small, poorly fitted or top-dose-only effect; inactive means no such curve, though single readings can be large or run the other way; also: 0% is about no effect; nearly all actives have a fitted effect of over 55% in size; growth read by luminescence after 48 h
Lassa entry inh: Lassa virus entry inhibition; AID 540256; 300,000 tested, 1.2% active; Potency, µM (titrated, usually from 37.9 µM), for the others: at the highest dose activity change, negative = inhibition, actives largely listed as inhibitors; Lassa virus pseudotype entry inhibition, cell reporter; control for the full effect not named in the record; active means well fitted inhibition curve with a large enough effect; inconclusive means small, poorly fitted or top-dose-only effect, or effect the other way; inactive means flat fitted curve, though single readings scatter; tested in HEK293 cells; also: % is scaled to controls: 0 for no effect and ±100 for the full control effect; nearly all actives have a fitted effect of over 50% in size; luciferase read-out
StopGo reporter: FMDV 2A StopGo reporter, luciferase signal; human cells with a luciferase reporter of 2A StopGo recoding; control for the full effect not named in the record; Potency, µM (titrated, usually from 57.9 µM), for the others: at the top dose signal change, negative = less light; 410,000 tested, 1.2% active; AID 1159524; active = well fitted falling curve with a large enough effect; inconclusive = small, poorly fitted or top-dose-only effect; inactive = no such curve, though single readings can be large or run the other way; tested in HEK293T cells; also: % is scaled to controls: 0 for no effect and ±100 for the full control effect; nearly all actives have a fitted effect of over 45% in size; luciferase light after 4 h
Cruzain Triton: cruzain (T. cruzi) inhibition with detergent; purified cruzain, Z-FR-AMC fluorescence, 0.01% Triton; Potency, µM, without a hit: max response, negative = inhibition, actives largely listed as inhibitors; 200,000 tested, 0.43% active; AID 1478;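 also: plate controls were neutral wells for no effect and buffer without enzyme for full effect; nearly all actives have a fitted effect of over 40% in size; top concentration of the series not given in the record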
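Cysteine protease activity tested under reducing, mildly acidic conditions (100 mM sodium acetate pH 5.5, 5 mM DTT) plus 0.01% Triton X-100. Cruzain 1.5 nM; substrate Z-FR-AMC 2 uM; 15 min compound preincubation at room temperature.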
The depositor's hits bear a star; ? = inconclusive; . = not tested or not shown; & = joins results of further samples; [ ] = remark or other dose. Unless noted, calls follow the shape of the dose curve; as a rule, active = well fitted curve in the direction sought with a large enough effect; inconclusive = small, poorly fitted or top-dose-only effect, or another doubt; inactive = no such curve, though single readings can be large; an effect the other way counts as inactive or inconclusive. Potency is read from the fitted curve at half-maximal effect.

SMILES	Cruzain noTriton	MARV entry inh	RE007 growth inh	NS1 inh	SARS PLP yeast	Lassa entry inh	StopGo reporter	Cruzain Triton
CCc1nc2sc3ccccc3c(=O)c2c(=O)n1CCOC	-12.5%	-2.2%	11.4%	-5.5%	3.6%	1.1%	0.7%	1.1%
CCOc1ccc(NC(=S)NCc2nc3ccccc3[nH]2)cc1	.	-7.2%	5.2%	.	-1.6%	8.4%	40.5%[activator]	.
N#Cc1c(N)n[nH]c1CCCN	5.1%	?	13.6%	6.5%	-13.9%	-14.9%	18.4%	2.1%
O=C(NCC1(c2ccccc2)CCCC1)c1ccc(Br)o1	2.3%	?	8.9%	-32.6%	-3.0%	-1.8%	?	-1.3%
Cc1cc(C)c(NC(=O)Cc2ccc(-n3cccc3)cc2)c(C)c1	?	-2.7%	9.2%	2.9%	-2.9%	-15.3%	-8.7%	0.2%
O=S(=O)(c1ccccc1F)N1CCN(c2nc3ccccc3s2)CC1	.	-23.4%[46.1 µM]	-5.8%	-1.4%	1.4%	?	2.4%	.
Cc1cc(NS(=O)(=O)c2ccc(NC(=O)C(C)Oc3ccc4c(C)cc(=O)oc4c3)cc2)no1 (stereo not given)	2.6%	-0.3%&-0.3%	20.6%	?	1.9%	22.2%	-15.7%	-18.8%
COc1c2c(c3c(c1OC)c(=O)c1ccccc1n3C)OCO2	.	13.6%	-4.2%	.	.	-7.5%[46.1 µM]	-10.3%	.
CCOC(=O)C1CCN(C(=O)Cn2c(=O)cc(C)c3c(C)nn(C)c32)CC1	-7.4%	.	.	.	.	?	?	-1.6%
COc1cccc(-c2nc(CS(=O)(=O)CC(=O)NC3CCC(C)CC3)c(C)o2)c1 (stereo not given)	.	?	-5.2%	1.5%	1.0%	-23.6%[46.1 µM]	-19.5%	.
O=P(Nc1ccccc1)(Oc1ccccc1)Oc1ccccc1	.	.	-1.7%	1.9%	-1.9%	.	11.2%	.
CCOC(=O)c1ccccc1NC(=O)c1cn(-c2ccc(C)c(C)c2)c(=O)c2ccccc12	?	?	13.3%	9.9%	?	?	-26.8%	-4.6%
Cc1ccc(C(=O)N2CCCC(CCC(=O)N3CCN(c4ccccn4)CC3)C2)cc1 (stereo not given)	.	.	-10.8%	?	6.4%	.	-9.9%	.
CCC1CCCCN1CCCNC(=O)CN1C(=O)c2cccnc2Oc2ccc(C)cc21 (stereo not given)	.	.	-10.3%	-1.2%	-7.2%	19.3%[46.1 µM]	-9.7%&-7.5%	.
O=C(NCc1cccs1)C1CCCN1C(=O)Nc1cccc(F)c1 (stereo not given)	.	2.9%[46.1 µM]	13.9%	.	1.2%	?	0.5%	.
Cc1ccc(Cn2cc(/C=C(/C#N)C(=O)Nc3cccc(Cl)c3)c3ccccc32)cc1	7.94µM*	.	.	.	.	-6.8%[46.1 µM]	?	-2.8%
O=C(Cc1ccc(NC2=NC3CS(=O)(=O)CC3S2)cc1)NCc1ccccc1Cl (stereo not given)	.	.	8.6%	1.9%	2.6%	.	-7.2%	.
COCCCNC(=O)C1CCC(=O)N(c2ccc3c(c2)OCO3)C1c1ccc(OC)cc1 (stereo not given)	.	.	8.6%	3.7%	0.0%	.	-5.8%	.
Cc1ccc(C(=O)NCC(=O)N2CCN(c3ccccc3)CC2)cc1	.	.	1.8%	-0.2%	0.7%	.	-0.5%	.
C/C(=C\c1ccco1)C1Nc2cccc3cccc(c23)N1	3.16µM*	1.7%	.	-41.9%	0.9%	.	.	-7.8%
CCN(C(=O)c1cc2c(Cl)nc3ccccc3c2s1)c1cccc(Cl)c1	-10.4%	.	.	.	.	-23.5%[46.1 µM]	-26.3%	-0.4%
O=C(c1ccco1)N(c1ccccn1)c1ccccn1	-0.2%	13.9%	2.1%	-5.6%	-1.8%	2.5%	-18.0%	-0.1%
CN(C)S(=O)(=O)N1CCN(S(=O)(=O)N2CCOCC2)CC1	.	11.4%[46.1 µM]	2.8%	-2.0%	-0.4%	0.1%	-6.8%	.
CC(C)(C)C(=O)NNC(=O)c1ccc(Oc2cc(Cl)cc(Cl)c2)o1	.	-5.3%	4.6%	0.9%	2.0%	?	-12.7%	.
COC(=O)C1=C(C)NC2=C(C(=O)CCC2)C1c1ccsc1 (stereo not given)	2.7%	.	.	-0.3%	-10.8%	.	.	1.9%
CCC1CCCCN1CCCNC(=O)Cn1ncn2nc(-c3ccc(OC)cc3)cc2c1=O (stereo not given)	.	?	-1.4%	-1.8%	0.0%	22.6%[46.1 µM]	22.7%	.
CC(C)CCN1CC(O)=C(c2nc3ccccc3[nH]2)C1=N	0.0%	-8.5%	7.6%	-3.1%	-0.6%	12.9%	43.2%[activator]	-5.9%
CCC(C)c1c(O)nc(SCC(=O)Nc2ccccc2)[nH]c1=O (stereo not given)	-1.3%	3.6%	-17.4%	-3.6%	13.9%	7.3%	-9.1%	-4.0%
Cc1c(C(=O)NCCCn2ccnc2)oc2ccccc12	.	-2.9%[46.1 µM]	-19.3%	-1.1%	-0.7%	-1.5%[46.1 µM]	10.4%	.
O=C1CC(=O)C(n2cncn2)C(c2ccc(Cl)cc2)C1 (stereo not given)	4.8%	11.6%	-7.0%	24.7%	0.6%	14.2%	15.9%	2.4%
CC1CCN(C(=O)Cn2nnc(-c3ccc([N+](=O)[O-])cc3)n2)CC1	.	.	15.3%	1.8%	-3.8%	.	-23.2%	.
CS(=O)(=O)Nc1ccc(C2=NN(C(=O)c3ccco3)C(c3cccc(F)c3)C2)cc1 (stereo not given)	.	11.2µM*	10.7%	.	0.9%	?	-14.4%	.
COc1cc(CNCCO)cc(Br)c1OCc1ccccc1Cl	-4.3%	?	-15.9%	-1.9%	-4.6%	-15.3%	-25.4%	0.9%
O=c1c(Cc2c(F)cccc2Cl)c(O)ccn1Cc1ccc(F)cc1	.	?	14.7%	-0.8%	0.2%	-21.4%[46.1 µM]	13.8%	.
CCCC[C@@H]1C[C@H]1[C@@H](NC(=O)c1ccco1)c1ccc(Cl)cc1	-10.1%	-7.9%	22.0%	-77.2%	-55.9%	-4.5%	?	-21.0%
COC(=O)Cn1cnc2sc(C)c(S(=O)(=O)N3CCC(C)CC3)c2c1=O	-10.7%	-1.8%	9.0%	1.4%	-1.2%	-1.6%	0.4%	-2.0%
COCCn1c(SCC(=O)Nc2cc(C)on2)nnc1-c1c[nH]c2ccccc12	-4.5%	.	-0.7%	-2.1%	2.2%	.	-7.1%	4.4%
CCOC(=O)N1CCN(C(=O)c2noc3c2COc2ccccc2-3)CC1	.	.	-2.1%	4.2%	-3.5%	.	-3.8%	.
COc1ccccc1N(C)S(=O)(=O)c1ccc(C(=O)Nc2nc(C)cs2)cc1	.	16.4µM*	-0.6%	.	-0.3%	?	28.2µM*	.
CC(=O)Oc1ccc(OC(C)=O)c2c1C1C=CC2CC1	.	2.5%	4.9%	.	.	7.9%	-11.1%	.
O=C(CSc1nc(-c2ccccc2)cc(=O)[nH]1)Nc1ccccc1F	9.4%	0.3%[46.1 µM]	2.8%	4.7%	1.8%	4.4%[46.1 µM]	-10.5%&-3.9%	-2.0%
Cc1ccc(Cl)cc1NC(=O)CN1C=NS(=O)(=O)c2ccccc21	2.4%	.	.	.	.	16.4%[46.1 µM]	2.2%	0.3%
COc1ccc(C2=CSC3=NNC4(CCCCC4)NN23)cc1	.	21.3%[46.1 µM]	9.8%	.	-0.5%	?	19.1%	.
CCCn1nnnc1SCC(=O)N1CCCCC1	.	27.4%[46.1 µM]	19.2%	1.5%	-1.6%	14.5%	20.0%	.
O=C(O)c1cccc(NC2=Nc3cccc4cccc2c34)c1	.	.	-10.8%	-3.1%	-1.0%	.	0.0%	.
O=c1c2ccsc2ncn1Cc1ccccc1F	-2.4%	10.4%	38.2%	-1.4%	14.8%	-2.0%	-0.5%	5.5%
S=C(Nc1ccccc1)Nc1ccc(OCc2ccccc2)cc1	12.6µM*	6.3%	-2.5%[3.69 µM]	0.9%	-1.1%	-0.8%	11.7%	5.1%
CCS(=O)(=O)NCCNc1ccc([N+](=O)[O-])cc1	.	?	-9.7%	-1.2%	0.3%	16.9%[46.1 µM]	-11.5%	.
COc1cccc(OCCNC(=O)c2ccc(C)cc2)c1	.	-24.9%[46.1 µM]	1.7%	-6.9%	0.8%	-5.1%[46.1 µM]	25.1%	.
COc1ccc(OC)c(-n2c(-c3ccc(C)cc3)n[nH]c2=S)c1	-9.8%	?	-1.0%	-9.5%	9.7%	-22.0%	-15.7%	6.1%
CCOC(=O)c1ccccc1NS(=O)(=O)c1c(-c2ccc(C)cc2)csc1C(=O)OC	-20.5%	.	.	.	.	-29.1%[46.1 µM]	0.0%	-6.1%
O=C(Cn1nnnc1-c1ccccc1F)Nc1ccc(F)c(F)c1	11.3%	-15.4%[46.1 µM]	.	.	.	0.1%[46.1 µM]	14.9%	-6.0%

Five compounds picked at random from the list so far, as already listed:
SMILES	Cruzain noTriton	MARV entry inh	RE007 growth inh	NS1 inh	SARS PLP yeast	Lassa entry inh	StopGo reporter	Cruzain Triton
CCOC(=O)c1ccccc1NS(=O)(=O)c1c(-c2ccc(C)cc2)csc1C(=O)OC	-20.5%	.	.	.	.	-29.1%[46.1 µM]	0.0%	-6.1%
COc1cccc(OCCNC(=O)c2ccc(C)cc2)c1	.	-24.9%[46.1 µM]	1.7%	-6.9%	0.8%	-5.1%[46.1 µM]	25.1%	.
O=C(Cn1nnnc1-c1ccccc1F)Nc1ccc(F)c(F)c1	11.3%	-15.4%[46.1 µM]	.	.	.	0.1%[46.1 µM]	14.9%	-6.0%
Cc1ccc(Cl)cc1NC(=O)CN1C=NS(=O)(=O)c2ccccc21	2.4%	.	.	.	.	16.4%[46.1 µM]	2.2%	0.3%
S=C(Nc1ccccc1)Nc1ccc(OCc2ccccc2)cc1	12.6µM*	6.3%	-2.5%[3.69 µM]	0.9%	-1.1%	-0.8%	11.7%	5.1%
